gsp antagonist – gsp mutant antagonism. Potency, µM (doses to about 76.9 µM), for the others: at the highest dose activity change, negative = inhibition, hits mostly inhibitors. AID 624288. gsp-mutant cells, cAMP HTRF, 30 min; control for the full effect not named in the record. 0.4% of 340,000 active; active = falling curve of any shape with a large fitted effect; inconclusive = falling curve, mostly with a smaller effect; inactive = flat or rising curve; cell line not stated here;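 also: intracellular cAMP measured with PDE inhibitor Ro 20-1724 present during compound exposure; potency is read from the fitted curve at half-maximal effect; % is scaled to controls: 0 for no effect and ±100 for the full control effect; nearly all actives have a fitted effect of over 65% in size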
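HTRF cAMP measurement after 30 min RT detection following 30 min, 37C compound treatment alongside […] (added as 300 uM solution) in G418-selected cells seeded at 2000/well and grown 16–24 h.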
ClpP mod – qHTS Assay for Activators of ClpP; ATP-dependent Clp protease proteolytic subunit (Bacillus subtilis (strain 168)), P80244; purified B. subtilis ClpP, FRET peptide cleavage, 20 min; Potency, µM (titrated, usually from 57.5 µM), for inactives: top-dose activity change, negative = active; 1.9% of 340,000 active; active = well fitted falling curve with a large enough effect; inconclusive = small, poorly fitted or top-dose-only effect; inactive = no such curve, though single readings can be large or run the other way; also: potency is read from the fitted curve at half-maximal effect; the source files actives as falling curves though it sought activators and does not explain the sign; nearly all actives have a fitted effect of over 65% in size; many hits overshoot -100%
Target sequence (P80244 whole entry, looked up): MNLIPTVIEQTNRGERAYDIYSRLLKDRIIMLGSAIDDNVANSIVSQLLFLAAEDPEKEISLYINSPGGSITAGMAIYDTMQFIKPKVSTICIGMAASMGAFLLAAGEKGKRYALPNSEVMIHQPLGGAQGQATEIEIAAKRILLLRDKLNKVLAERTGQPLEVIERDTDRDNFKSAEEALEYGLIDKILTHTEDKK
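Purified B. subtilis ClpP, 10 microg/mL final in Tris/HCl pH8 with KCl, BSA, glycerol and Tween-20, cleaved an Abz/nitrotyrosine-quenched decapeptide. Fluorescence (ex 320, em 430) was read at 0 and 20 min at room temperature. Delta was normalized to 5.8 microM ADEP and DMSO/no-enzyme controls.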
Sfp PPTase inh – Sfp phosphopantetheinyl transferase inhibition. Q9F4F7. Biochemical Sfp PPTase activity, qHTS. Potency, µM, for inactives: max response, negative = inhibition, actives largely listed as inhibitors. 3.5% of 310,000 active. AID 1490; active = well fitted inhibition curve with a large enough effect; inconclusive = small, poorly fitted or top-dose-only effect, or another doubt; inactive = no such curve, though single readings can be large or run the other way;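 also: the enzyme is Sfp with the accession as filed and its product quenches rhodamine fluorescence; potency is read from the fitted curve at half-maximal effect; 0% = enzyme reaction without inhibitor and -100% = no enzyme wells; top concentration of the series not given in the record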
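Buffer: 50 mM Hepes-Na pH 7.6, 10 mM MgCl2, 0.01% Nonidet P-40, 0.01% BSA. Enzyme 15 nM, pre-exposed to compound 15 min; substrates then added and fluorescence change tracked over 30 min.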
D2 agonist – activates the human D2 dopamine receptor; P14416; DiscoveRx PathHunter D2 beta-arrestin, luminescence, 90 min; 100% = 57 uM dopamine signal; activation, % (test concentration not listed); 0.084% of 360,000 active; AID 624465; in the data active = activation above about 40%; inconclusive = about 15% to 40%; inactive = below about 15%; also: compound concentration not given in the record; the text of the record calls up to 30% inactive
Target sequence (P14416 whole entry, looked up): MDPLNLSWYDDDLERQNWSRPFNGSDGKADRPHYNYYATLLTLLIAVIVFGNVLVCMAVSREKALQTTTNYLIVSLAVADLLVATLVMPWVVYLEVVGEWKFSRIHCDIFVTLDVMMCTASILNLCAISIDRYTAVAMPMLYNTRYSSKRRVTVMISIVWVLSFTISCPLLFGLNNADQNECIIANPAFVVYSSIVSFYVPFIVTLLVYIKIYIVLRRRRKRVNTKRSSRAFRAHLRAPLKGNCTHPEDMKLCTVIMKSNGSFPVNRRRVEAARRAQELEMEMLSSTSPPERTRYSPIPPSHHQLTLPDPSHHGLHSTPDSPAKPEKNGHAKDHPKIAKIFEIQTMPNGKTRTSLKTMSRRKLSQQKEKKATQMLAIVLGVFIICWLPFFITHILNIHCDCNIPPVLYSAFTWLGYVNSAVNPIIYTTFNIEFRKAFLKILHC
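Agonist mode: compounds alone added to overnight-plated D2 PathHunter cells for 90 min at 37 C, with 57 uM final dopamine (EC100) defining full response. Beta-arrestin recruitment detected by chemiluminescent reagent, read after 1 h at ambient temperature.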
Menin-MLL FL inh – inhibitors of human menin-MLL interaction, wild-type MLL peptide; Fluorescence polarization, fluorescein-MLL peptide displacement from menin; FP activity change, % at 61.4 µM; 290,000 tested, under 10 active; inconclusive = falling polarisation curve, or a change in total fluorescence; inactive = total fluorescence flat and polarisation flat or rising; no compound was filed as active; the % refers to the polarisation; negative = inhibition;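 also: % of control where 0% means no effect; inhibitors lower the polarisation; unlabelled MLL peptide was the positive control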
PINK1 expr mod – modulators of PINK1 expression. 0.2% of 410,000 active. PINK1 immunofluorescence, high-content cytometry, 24 h. AID 624263. Potency, µM (doses to about 76.6 µM), for inactives: at the highest dose activation (PINK1 increase), actives largely listed as activators; active = well fitted activation curve with a large enough effect; inconclusive = small, poorly fitted or top-dose-only effect; inactive = flat fitted curve, though single readings scatter; cell line not stated here;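 also: potency is read from the fitted curve at half-maximal effect; % of control where 0% means no effect; nearly all actives have a fitted effect of over 65% in size; a mitochondrial uncoupler was the plate control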
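Stable cell line, 250 cells/well, 12 h attachment; compounds pinned at 5 concentrations, 24 h; CCCP control. Fixed with nuclear dye, primary antibodies 12 h at 10 degrees C, secondary plus cell stain; laser-scanning cytometer read.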
gsp agonist – activates gsp, the McCune-Albright syndrome mutation; AID 624287; 0.13% of 340,000 active; gsp mutant cells, cAMP HTRF, 30 min; control for the full effect not named in the record; Potency, µM (doses to about 76.9 µM), for the others: at the highest dose activation (cAMP increase), usual class: activators; active = well fitted activation curve with a large enough effect; inconclusive = small, poorly fitted or top-dose-only effect, or another doubt; inactive = no such curve, though single readings can be large or run the other way; cell line not stated here;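 also: phosphodiesterase inhibitor Ro 20-1724 added with compounds to block cAMP breakdown; potency is read from the fitted curve at half-maximal effect; nearly all actives have a fitted effect of over 60% in size; about a fifth of the inactives were tested at one dose only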
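Cells stably selected in G418 were plated at 2000/well, grown 16-24 hr, then given compounds in DMSO with the PDE inhibitor […] (300 uM solution added) for 30 min at 37C; cAMP was read by HTRF.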
The depositor's hits bear a star; u = inconclusive; x = no result given; & = joins results of further samples; [ ] = another dose, or the depositor's remark.

SMILES	gsp antagonist	ClpP mod	Sfp PPTase inh	D2 agonist	Menin-MLL FL inh	PINK1 expr mod	gsp agonist
S=C(N/N=C1\CCc2ccccc21)NC1CCCCC1	-7.0%	-3.3%	9.3%	-4.8	1.3	-1.5%	-1.6%
Cc1cc(F)ccc1S(=O)(=O)N(C(=O)c1ccncc1)c1ccc(OC(=O)c2ccncc2)cc1	-0.4%	x	8.1%	4.4	-4.9	0.0%	3.2%
COc1cc(C(=O)COC(=O)c2ccc([N+](=O)[O-])o2)cc(OC)c1OC	9.9%	6.2%	x	5.4	x	-1.9%	-1.8%
COc1ccc(OC(C)C(=O)N2CCOCC2)cc1 (stereo unspecified)	6.3%	-3.3%	13.0%	-2.4	0.0	-0.2%	-33.9%[inhibitor]
O=C1c2ccccc2C(Nc2ccc(-c3nc4ccccc4[nH]3)cc2)N1Cc1ccco1 (stereo unspecified)	u	4.3%	9.7%	1.7	1.8	1.0%	-44.0%[inhibitor]
CCC(=O)NNc1cc(=O)c2c(=O)n(C)c(=O)n(C)c2[nH]1	8.3%	-0.8%	8.3%	-1.0	-2.3	-0.7%	-2.5%
O=C1NC(Cc2ccc(O)cc2)c2nc3ccc(Br)cc3c(=O)n2-c2cc3ccccc3cc21 (stereo unspecified)	x	-7.5%	x	-4.3	x	2.1%	-30.4%[inhibitor]
C=C(C)COc1ccc(-c2ncncc2-c2ccc(Cl)cc2)c(O)c1	-12.5%	-4.8%	-12.4%	-7.9	-0.8	29.2%	7.0%
O=C(Nc1ccc(S(=O)(=O)N2CCCC2)cc1)c1cccnc1Cl	9.4%	-1.6%	x	-5.1	x	0.6%	-38.4%[inhibitor]
CCCC(=O)Nc1ccccc1-c1nnn(CC(=O)Nc2ccc(OCC)cc2)n1	0.9%	0.6%	-3.7%	-2.0	-1.8	2.1%	2.6%
COc1cc2c(cc1OC)C(Cc1ccc(O)cc1)N(C)CC2 (stereo unspecified)	4.4%	9.4%	18.7%	-0.4	-4.7	1.8%	6.7%[15.4 µM]
COc1ccc(C(=O)NNC(=S)NC(=O)c2ccc(OC)cc2)cc1	0.9%	-1.3%	8.7%	-2.2	2.9	10.1%	-14.4%
Clc1ccccc1-c1ccc2ncnc(NCCN3CCOCC3)c2c1	x	x	-3.3%	x	1.6	1.5%	x
COc1ccc([C@H]2C(C(=O)O)=C[C@@H](C(C)(C)C)N2S(=O)(=O)c2ccccc2)cc1	1.0%	-1.4%	x	-0.5	x	-1.3%	x
CCOc1ccc(NC(=O)CS(=O)CC(=O)N(CC(=O)NC(C)(C)C)C2CCCC2)cc1 (stereo unspecified)	2.8%	x	11.0%	-2.0	0.4	3.1%	u
O=[N+]([O-])c1cccc(/C=C2\CCc3cnn(C4CCS(=O)(=O)C4)c32)c1 (stereo unspecified)	x	3.2%	x	-1.9	x	3.7%	-21.3%
Cc1ccc(C)c(S(=O)(=O)N(C)C2(C)CCS(=O)(=O)C2)c1 (stereo unspecified)	12.2%	x	x	-4.0	x	-3.7%	8.0%[15.4 µM]
COc1ccc2[nH]c(C)c(CCNC(=S)Nc3ccccc3C)c2c1	-11.8%	-6.8%	-2.3%	5.3	1.5	1.3%	u
O=C(COC(=O)CCc1nc2ccccc2c(=O)[nH]1)Nc1ccccc1	0.4%	x	x	1.8	x	-0.2%	7.6%
CCOC(=O)CCCNC(=O)CSc1nc2ccc(OCC)cc2[nH]1	8.0%	x	-8.7%	-0.4	1.1	1.3%	9.8%[15.4 µM]
O=C(CCNC(=O)c1ccccc1Cl)Nc1ccccc1N1CCCC1	-6.0%	-1.3%	2.7%	-10.0	0.1	0.1%	u
Cc1ccc(NC(=O)C(=O)NCCCN2CCOCC2)c(C)c1	8.4%	0.5%	-5.1%	-1.6	7.7	2.3%	1.7%
Nc1nc2c(ncn2[C@@H]2O[C@H](CNCc3ccc4ncccc4c3)[C@@H](O)[C@H]2O)c(=O)[nH]1	x	2.8%	x	-1.9	x	0.7%	x
O=C(COC(=O)/C=C/c1ccc2c(c1)OCO2)NCc1ccccc1	1.4%	4.5%	x	-3.1	x	7.3%	-4.5%
CCc1ccc(C(=O)NNC(=O)c2c(CC)noc2C)cc1	10.1%	x	x	3.1	x	1.6%	6.9%[15.4 µM]
O=C(O)Cn1nnnc1SCC(=O)Nc1ccc(F)cc1F	12.5%	x	11.9%	4.7	-4.3	2.1%	-39.9%[inhibitor]
O=C(COC(=O)CCC(=O)c1ccc(F)cc1)Nc1cccc(S(=O)(=O)N2CCOCC2)c1	-6.6%	1.5%	15.1%	-5.2	-5.6	-0.3%	7.1%
COc1ccc(NC(=O)CCN2CCC(C)CC2)cc1	10.7%	-1.4%	14.5%	-1.0	2.2	-3.0%	7.6%
Cc1ccc(C)c(C(O)c2ncc(-c3ccc(Cl)cc3)[nH]2)c1 (stereo unspecified)	x	-0.4%	x	-2.7	x	2.8%	x
N#Cc1nc(-c2cccs2)oc1N1CCN(c2ccccc2)CC1	-3.4%	28.2µM*	15.4%	0.0	-2.8	12.0%[38.3 µM]	-4.0%
O=C(NNC(=O)c1cc2ccccc2cc1O)Nc1ccc(F)cc1F	-1.1%	-8.3%	-4.0%	-2.6	9.5	-0.6%	-0.3%
CCCn1c(COc2ccccc2)nc2ccccc21	-5.3%	-0.4%	15.8%	u	1.5	0.7%	0.2%[15.4 µM]
Cc1ccc2c(COC(=O)c3ccccc3Br)cc(=O)oc2c1	u	x	-4.6%	-1.1	2.2	3.8%	u
O=C(Nc1cccc2ncccc12)c1cc([N+](=O)[O-])ccc1Cl	-7.4%	x	-11.7%	5.6	-1.7	0.5%	-8.0%
COc1ccccc1Nc1nc(Cl)c(C=O)s1	-4.5%	x	-5.4%	-1.1	u	0.6%	-10.9%[15.4 µM]
O=C(NCc1ccccc1Cl)C1CCN(S(=O)(=O)N2CCOCC2)CC1	1.7%	-0.6%	11.2%	2.0	-1.4	0.3%	23.8%
Cc1cccn2c(=O)c(/C=N/O)c(N3CCCCC3)nc12	-14.7%	1.6%	2.8%	1.2	3.5	-1.1%[38.3 µM]	-37.9%
CCC1CCc2sc(C(=O)NCC(c3ccccc3OC)N3CCCC3)cc2C1 (stereo unspecified)	-8.4%	-3.9%	x	2.5	x	-0.3%	7.5%
Cc1ccc(N2C(=O)N(CC(=O)Nc3ccc(F)c(F)c3)C(=O)C2C)cc1 (stereo unspecified)	2.1%	1.5%	x	-3.1	x	-0.3%	u
CCOC(=O)c1ccc(NC(=O)CNC(=O)C23CC4CC(CC(C4)C2)C3)cc1	-1.3%	-1.1%	14.7%	-0.1	3.5	-0.7%[38.3 µM]	-12.7%
Cc1ccc2[nH]c(=O)c(CN(Cc3cccs3)C(=S)NCC3CCCO3)cc2c1 (stereo unspecified)	u	u	0.5%	2.0	1.5	7.6%	-5.1%
C=CCCN(Cc1ccccc1)S(=O)(=O)c1cc(Br)ccc1Br	-8.0%	-3.5%&-0.6%	x	1.1	x	4.6%	22.6%
CN(Cc1ccccc1)C(=O)Cn1c(=O)oc2cc(S(=O)(=O)N3CCCC3)ccc21	1.2%	-2.2%	14.8%	-6.2	3.1	0.2%	-1.6%
CCN(C(=S)Nc1cccnc1)c1ccccc1	8.8%	0.3%	-20.4%	-0.8	-1.0	3.0%	-3.0%[15.4 µM]
O=S(=O)(NC1=NCCCCCC1)c1cccs1	8.0%	-1.5%	-1.5%	0.8	1.3	3.7%[38.3 µM]	-0.3%
O=S(=O)(c1ccccc1)N1N=C(c2cccs2)CC1c1cccc(O)c1 (stereo unspecified)	-19.7%	-1.6%	-11.5%	-3.1	x	5.1%	15.1%
O=C(COc1ccc(Cl)cc1)Nc1ccc2oc(-c3ccncc3)nc2c1	4.5%	14.6%	6.7%	-1.8	1.0	0.4%	31.7%
CC1CC(C)CN(C(=O)c2ccc(S(=O)(=O)N3CCCC3)cc2)C1 (stereo unspecified)	6.7%	0.9%	1.6%	-4.1	1.5	2.1%	16.7%
COC(=O)Cc1ccc(NC(=O)c2ccc(Br)o2)cc1	0.8%	0.6%	-0.2%	-1.0	0.5	-0.6%	19.4%
NC(=S)N/N=C/C=C/c1ccccc1	-6.6%	2.5%	2.2%	-1.4	2.6	-2.0%	25.0%
CCOc1ccc(NC(=O)C(C)Sc2nccn2C)cc1 (stereo unspecified)	0.9%	-0.9%	10.1%	4.4	0.3	-1.2%	3.3%
O=C(/C=C/c1ccccc1)N1CCC(Cc2ccccc2)CC1	4.3%	1.8%	-24.3%	-1.7	-5.2	0.2%	0.2%
CC1CCCCN1C(=O)COC(=O)C1CCN(S(=O)(=O)c2ccc3c(c2)OCCO3)CC1 (stereo unspecified)	-12.3%	-1.2%	x	-5.7	x	1.3%	-44.2%[inhibitor]
CC1(C)CC(=O)c2sc(NC(=O)CCS(=O)(=O)c3ccccc3)nc2C1	-3.6%	-20.4%	-9.3%	-2.4	6.4	4.0%	-21.2%
C=CCN1C(=O)CN=C1Nc1ccc(F)cc1	-19.8%	x	-8.6%	0.3	1.1	-0.5%	-7.2%[15.4 µM]
CC(=O)c1cccc(N/C=C\c2nnnn2-c2ccc(F)cc2)c1	3.3%	13.1%	9.3%	0.0	1.3	4.5%	4.1%
Cc1cc(C)nc(N2N=C(C(C)(C)C)CC2=O)n1	10.3%	1.3%	-9.9%	3.1	-2.0	u	2.7%
COc1ccc(NC(=O)CN(C)C(=O)Cc2n[nH]c(=O)c3ccccc23)cc1	8.7%	x	x	-0.5	x	1.0%	20.5%[15.4 µM]
CSc1ccc(S(=O)(=O)NCC(=O)OCC(=O)N2CCCC2=O)cc1[N+](=O)[O-]	-13.8%	-2.2%	x	-1.6	x	1.2%	-8.3%[15.4 µM]
CC(=N\NC(=O)c1ccccc1)/C(=N/O)C(=O)Nc1ccccc1	11.7%	x	3.7%	-1.4	1.3	-1.1%	2.2%
CC(C)(C)OC(=O)C[C@@H]1C/C=C\C[C@@H](CC(=O)NCCO)C(=O)N2CCC[C@H]2COC1=O	8.8%	-1.0%	x	-0.2	x	-0.7%	x
CCCn1nc2cc(C(=O)NCc3ccc(OC(F)(F)F)cc3)ccc2c1OCC	-8.8%	3.6%	6.2%	-2.0	2.0	1.4%	x

High-throughput results: PubChem, National Center for Advancing Translational Sciences (NCATS)

Rows were taken by chance; about 5.1% have a hit in one of these screens.
